RN4220 kill – kills Staphylococcus aureus RN4220; S. aureus RN4220 growth, OD600, 16 h; actives 0.33% (n = 330,000); inhibition, % (no concentration beside the values);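 active means z-score of -3 or lower and OD600 up to 0.18 on both plates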;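 further: plate controls were untreated cells for no effect and reference antibiotic for full effect; stock transfer was 100 nL into about 80 µL; one replicate is shown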
BJeLR viability – BJeLR cell viability loss; BJeLR (HRASV12) viability, CellTiter-Glo ATP luminescence, 48 h; reference of the scale not given here; inhibition, % (concentration not given with the values); actives 0.17% (n = 300,000); AID 1554;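 active means replicate mean above 50%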;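 further: 50 nL library stock added to about 25 µL; numbers are from one replicate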
ugtP null kill – kills S. aureus RN4220 lacking UgtP | S. aureus RN4220 ugtP deletion, OD600 growth, 16 h; some inactives read as strong as hits | growth inhibition, % (test concentration not listed) | actives 0.54% (n = 330,000) | AID 1259309;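 active means z-score under -3 and OD600 up to 0.15 on both plates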;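 further: plate controls were untreated wells for no effect and antibiotic for full effect; wells of about 80 µL received 100 nL stock; the first replicate is given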
Mtb hypoxia inh – Mtb hypoxia fluorescent reporter inhibition; AID 1159583; actives 0.1% (n = 300,000); M. tuberculosis hypoxia-regulated fluorescent reporter, fluorescence; fluorescence inhibition, % (no concentration beside the values);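 active means 35 to 45% if threefold the growth effect, above 45% if 1.5-fold the growth effect; inactive means the rest, general growth blockers included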;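 further: wells of about 50 µL received 100 nL stock; 0% = vehicle wells and 100% = reference inhibitor wells; whole bacteria with a GFP reporter of the hypoxia response; strong numbers were not always called active; many hits fall short of the cut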
Autofluor counter – flagged as autofluorescent in microsphere protease counterscreen; compound autofluorescence counterscreen, microsphere flow cytometry; stronger effect = higher value; fluorescence intensity (concentration not given with the values); actives 3.1% (n = 360,000);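 active means at least 3 SD above the mean of all compounds, about 16000 in these data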;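 further: 100 nL of 1 mM stock went into each well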
PrP UTR inh – inhibition of PrP 5' UTR reporter expression; cell-based PrP 5' UTR mRNA reporter, plate reader; inhibition, % (test concentration not listed); actives 0.35% (n = 340,000); AID 488862;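 active means every replicate at 50% or more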;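 further: 0 = median of the neutral control wells; tested in H4 reporter cells; numbers are from one replicate; inactives centre near -14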
Mtb hypoxia inh growth – second read-out of Mtb hypoxia inh, no call of its own (marks repeat the call); growth inhibition, %; measured here: M. tuberculosis growth (absorbance);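 0% = vehicle and 100% = reference antibiotic; read after six days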
Active calls of the source: *; x = no result given.

Molecule	ugtP null kill	Mtb hypoxia inh	PrP UTR inh	BJeLR viability	RN4220 kill	Autofluor counter	Mtb hypoxia inh growth
CN(C)CCCNC(=O)c1cc2sc3ccccc3c2s1	-3	12	-15	7	-3.5	2620	13
COc1ccc2c(=O)cc(C(F)(F)C(F)(F)F)oc2c1	3	-2	-36	7	4.4	5991	1
COc1ccc(C(C(C(=O)c2cccs2)N2CCOCC2)N2CCOCC2)cc1OC (stereo not given)	7	6	-28	-3	1.7	8062	6
O=C(c1ccc(N2CCOCC2)c([N+](=O)[O-])c1)N1CCCCC1	1	16	-3	7	2.4	5970	3
CC(=O)Nc1c(C(=O)O)oc2ccc(Cl)cc12	x	x	-30	4	x	9066	x
O=C(Nc1nc2ccccc2[nH]1)c1cccc(Br)c1	-15	-2	-131	-16	5.5	5626	6
CC[C@]12c3[nH]c4cc(CCC(=O)N(C)C)ccc4c3CCN1C(=O)[C@@H](CC(=O)NC(C)(C)C)C[C@@H]2C(=O)N1CCN(C(=O)c2ccco2)CC1	3	-4	-3	x	2.4	3945	4
COc1cc2c(cc1OC)CN(Cc1nc3ccsc3c(=O)[nH]1)CC2	2	x	-4	-8	-0.2	4618	x
CN1CCN(CCCNCc2cn(CCC#N)c3ccccc23)CC1	0	2	x	-2	1.8	4179	-3
Cc1cccc(NCc2ccccc2O)c1	10	11	-24	-3	-16	3318	9
COc1ccc(C(C(=O)NC2CCCCC2)N(C(=O)CCl)c2ccc(Cl)cc2)cc1 (stereo not given)	0	15	-3	26	11	8625	15
Cc1ccc(C=NNC(=O)CSc2nc3ccccc3n2C)s1	0	14	x	x	0.5	x	1
Cc1cnc(NC(=O)CN(C)S(=O)(=O)c2ccc(Cl)cc2)s1	13	x	0	4	13	3385	x
CSc1ncccc1C(=O)Nc1nc2ccc(Oc3ccccc3)cc2s1	12	-12	-12	-1	-9.3	2295	1
CCNS(=O)(=O)c1ccc(CCC(=O)O)cc1	-4	-2	4	-3	2.2	2512	0
Cc1ccc(Cn2c(C(=O)O)cc3sccc32)cc1	-10	4	-15	-7	12	2130	11
O=C(Nc1cc(C(F)(F)F)ccc1N1CCOCC1)c1cn2ccccc2n1	-2	14	-12	-5	-0.9	9949	5
Cc1cc(C)cc(NC(=O)c2cc(=O)c3ccccc3o2)c1	9	10	-25	8	3.4	2576	-1
COCC(=O)n1nc(NCc2ccc(OC)cc2)nc1NCc1ccc(OC)cc1	15	x	-16	-8	2.0	4432	x
O=C(COC(=O)c1nn(CCO)c(=O)c2ccccc12)Nc1ccc(Cl)c(Cl)c1	-6	2	-20	x	4.1	3807	2
CC(=O)Nc1sc(N/N=C/c2ccccc2F)nc1-c1ccc(C)cc1	x	x	-20	6	x	5902	x
Fc1cccc(Cl)c1Cc1noc(/C=C/c2ccccc2)n1	53	5	-58	7	-4.7	6762	6
CCN(CC)S(=O)(=O)c1cc(-c2nnc(-c3ccc(Br)cc3)o2)ccc1Br	-4	x	-63	-1	-1.8	4224	x
COC(=O)c1sc2ncn(-n3c(C)ccc3C)c(=O)c2c1C	2	-5	-9	4	1.1	4047	1
COc1ccc(C(CNC(=O)c2cccc(S(=O)(=O)Nc3ccc(F)cc3)c2)N2CCCC2)cc1 (stereo not given)	15	3	-4	x	0.4	13143	11
O=C(Nc1ccc(F)c(Cl)c1)Nc1ccc(Cl)cn1	-15	5	-29	1	2.9	2545	10
CCCOP(=O)(OCCC)C(Nc1cccc(C(F)(F)F)c1)c1ccc(C)cc1 (stereo not given)	-38	3	-39	5	-6.9	11229	2
O=C(CSc1ncccn1)N1CCN(S(=O)(=O)c2ccccc2)CC1	1	8	4	-10	2.1	5451	-4
O=C(NC(=S)N1CCCCCC1)c1ccc(Cl)cc1Cl	-3	10	-10	-1	4.5	4889	5
CCN(CC)S(=O)(=O)c1ccc(-c2nnc(SCC(N)=O)n2CC)cc1	-6	3	0	-2	2.7	5154	12
Cc1cc(C)c2cc(C(O)c3nnnn3Cc3ccccc3)c(=O)[nH]c2c1 (stereo not given)	-3	11	-49	-1	3.9	5178	12
Cc1ccc(N/N=C/c2ccncc2)cc1	x	x	-49	4	x	3766	x
CN1CCC(N(C)S(=O)(=O)c2ccc(NC(=O)COc3ccc([N+](=O)[O-])cc3)cc2)CC1	4	5	-27	-3	1.6	5933	9
O=C(COC(=O)c1ccc(Br)cc1)NCCC1=CCCCC1	3	0	-9	-23	5.6	4537	4
CC(C)(C)OC(=O)NCCCC[C@H](NC(=O)c1nc[nH]c1C(=O)NC(c1ccccc1)c1ccccc1)C(=O)OC(C)(C)C	x	x	3	3	x	2795	x
CCN1CCCC1CNCc1cccc(OC)c1OCc1ccccc1 (stereo not given)	12	11	-36	14	0.5	2293	-7
Cc1ccc(-c2csc(NC(=S)NC(=O)/C=C/c3ccco3)n2)cc1	1	0	-21	11	-6.1	11372	-4
O=C(Nc1ccc(Cl)cc1)Nc1nc(-c2ccccc2)cs1	x	x	-30	13	x	4889	x
CC1(C)SC(=S)N(NC(=O)Nc2ccccc2)C1N(O)C(=O)Nc1cccc2ccccc12 (stereo not given)	-28	2	-15	1	-18	2260	9
CCC(=O)N1CCc2cc(S(=O)(=O)NCCC(=O)N3CCN(c4ccccc4)CC3)ccc21	-2	-8	-4	-1	-1.6	5756	5
COc1cc([N+](=O)[O-])ccc1NC(=O)CSc1nnc(C)c(C)n1	1	8	-4	14	2.5	4128	-1
OCc1cccc(Nc2ncnc3sc4c(c23)CCCCC4)c1	-11	5	-15	2	1.6	3851	-1
CCN(C(=O)COC(=O)CN(C)S(=O)(=O)c1ccc(NC(C)=O)cc1)C1CCS(=O)(=O)C1 (stereo not given)	6	7	-16	-10	1.5	6209	5
COc1cc(CNn2nnnc2N)cc(Br)c1OCC(=O)NC(C)(C)C	-2	9	-4	0	7.1	5781	5
C=CCSc1nnc(-c2ccccc2NC(=O)CC)c(=O)[nH]1	3	x	-7	-3	-1.9	5080	x
C=CCN=C(NC#N)SCC(=O)c1cccc(OC)c1	13	5	-32	6	0.0	22163*	3
Cc1n[nH]c(C)c1CNCc1c(C(=O)N2CCCCCCC2)nc2ccc(Cl)cn12	3	14	-20	10	2.0	5966	-6
COc1ccc(C(C(=O)NC2CCCC2)N(CCC(C)C)C(=O)CCC(=O)Nc2cc(C)on2)cc1 (stereo not given)	1	11	-23	-4	4.5	5074	6
O=C(O)C1C2C=CC(O2)C1C(=O)Nc1ccccc1C(F)(F)F (stereo not given)	-7	11	-7	1	-16	3331	5
Cc1ccc(NC(=O)c2cc([N+](=O)[O-])ccc2N2CCOCC2)cc1S(=O)(=O)N1CCOCC1	-5	1	-11	-15	-2.1	6095	3

Compound profiles, from the list above.
Listed for CN1CCC(N(C)S(=O)(=O)c2ccc(NC(=O)COc3ccc([N+](=O)[O-])cc3)cc2)CC1 : ugtP null kill = 4; Mtb hypoxia inh = 5; PrP UTR inh = -27; BJeLR viability = -3; RN4220 kill = 1.6; Autofluor counter = 5933; Mtb hypoxia inh growth = 9
Listed for CCN(C(=O)COC(=O)CN(C)S(=O)(=O)c1ccc(NC(C)=O)cc1)C1CCS(=O)(=O)C1 (stereo not given) : ugtP null kill = 6; Mtb hypoxia inh = 7; PrP UTR inh = -16; BJeLR viability = -10; RN4220 kill = 1.5; Autofluor counter = 6209; Mtb hypoxia inh growth = 5
Listed for OCc1cccc(Nc2ncnc3sc4c(c23)CCCCC4)c1 : ugtP null kill = -11; Mtb hypoxia inh = 5; PrP UTR inh = -15; BJeLR viability = 2; RN4220 kill = 1.6; Autofluor counter = 3851; Mtb hypoxia inh growth = -1

Following part.
Molecule	ugtP null kill	Mtb hypoxia inh	PrP UTR inh	BJeLR viability	RN4220 kill	Autofluor counter	Mtb hypoxia inh growth
O=C(C1CCOCC1)N1CCCC(N2CCN(c3cccc(C(F)(F)F)c3)CC2)C1 (stereo not given)	0	5	0	4	-2.5	4373	6
COc1ccc(Cl)cc1NC(=O)NCC1CCN(C(=O)OC(C)(C)C)CC1	-3	7	-26	-1	2.4	4405	-1
C=CCOc1cccc(C(=O)/C=C2/C(=O)Nc3ccccc32)c1	-5	5	-36	28	-0.1	3737	3
CCN(CC)c1ccc(C2CC(=O)NC3=C2C(=O)CC(C)(C)C3)cc1 (stereo not given)	-6	x	-22	-5	2.4	4191	x
O=C(NN=Cc1ccccn1)C(=O)N1CCCCCC1	8	11	x	x	3.1	x	12
CC(O)CNc1nc2c(c(=O)n(C)c(=O)n2C)n1CCc1ccccc1 (stereo not given)	0	13	-77	27	-8.5	3141	11
Cn1cnnc1SCc1nnc(-c2ccccc2Br)o1	0	10	-23	0	2.3	4258	2
CCn1c(CC(=O)Nc2ccc(F)cc2)nnc1SCC(=O)NC1=NCCS1	-3	5	-20	6	-4.3	3684	11
CCCn1c(=O)[nH]c(=O)c2c1nc(-c1ccccc1)n2CCN1CCOCC1	-5	5	-13	x	-15	3429	2
CCOc1ccc(CN2CCN(Cc3cnc(N4CCOCC4)s3)CC2CCO)cc1 (stereo not given)	4	13	-9	8	1.4	3571	6
CCOc1ccccc1NC(=O)CN1C(=O)NC(Cc2c[nH]c3ccccc23)C1=O (stereo not given)	3	13	-6	x	5.3	3390	12
CCCOc1ccc(C(=O)N/N=C/c2c[nH]c3ccc(Br)cc23)cc1	x	x	-15	2	x	3169	x
O=C(NCc1cccs1)c1ccc2ccccc2n1	4	19	-16	0	6.8	2683	15
CN(C)C(=C(C#N)C#N)N1CCN(c2ccc(Cl)c(Cl)c2)CC1	0	9	-8	4	8.5	20347*	12
CCOC(=O)c1c(-c2ccccc2)csc1NC(=O)C(C)NCCCN1CCOCC1 (stereo not given)	10	-1	-6	-8	3.7	3401	-4
Cc1ccc(CNC(=O)c2ccc(CNS(=O)(=O)c3ccc4c(c3)C(C)(C)C(=O)N4C)cc2)o1	-2	6	-6	5	4.9	4362	4
COc1ccc(OCC(=O)NNc2nc3ccccc3s2)cc1	0	9	-69	-1	2.0	3911	-2
O=C(c1cccs1)n1nc(NCc2ccccc2)nc1NCc1ccccc1	3	6	-12	4	-2.2	7022	1
O=C(CNC(=O)c1ccccc1F)Nc1ccc2c(c1)OCO2	-1	2	-37	x	3.0	8553	3
CC1Cc2cc(S(=O)(=O)N3CCC(C(=O)NCc4ccco4)CC3)ccc2N1C(=O)C1CCC1 (stereo not given)	10	6	-29	3	2.7	5414	-1
Cc1ccc(NS(=O)(=O)c2ccc3c(c2)n(C)c(=O)n3C)c(C)c1	-7	-3	-39	10	-0.8	3812	1
CCOc1ccc(Oc2ccccc2NC(=O)CN2C(=O)NC3(CCCC3)C2=O)cc1	1	3	-6	7	4.3	4840	0
O=C(CCSc1ccc(Cl)cc1)Nc1cccnc1	11	11	-7	3	2.3	2190	3
CCOC(=O)CSc1nnc(NC(=O)c2cccc([N+](=O)[O-])c2)s1	-1	-4	-3	-5	-5.6	2346	4
O=C(CSc1ccccn1)N1CCN(C(=O)CSc2ccccn2)CC1	x	x	-13	-2	x	2411	x
Cc1ccc(Nc2cc(=O)[nH]c(=O)[nH]2)cc1C	9	20	-19	1	24	4220	12
CC(C)c1onc(C(=O)NCCc2ccccc2)c1[N+](=O)[O-]	14	4	-11	5	11	2557	-6
Cc1cc(=O)oc2cc(OCC(=O)OCC(=O)Nc3ccccc3Br)ccc12	-9	-4	-16	-9	0.2	5700	-4
CCOc1ccc(/C=N/N2CCN(Cc3ccccc3)CC2)cc1	x	x	-53	-19	x	4173	x
O=C(COC(=O)c1ccc(S(=O)(=O)N2CCOCC2)cc1)NC1CCCCCC1	2	-1	-9	1	0.1	9627	4
CCN(CC)C(=O)c1[nH]cnc1C(=O)Nc1ccccc1	2	2	-10	x	3.8	3679	-3
CCOC(=O)c1cnc(-c2ccccc2)nc1Oc1cccc(Cl)c1	37	x	-11	10	-6.0	5339	x
CC(C)(C)c1ccc2c(c1)OC(C(=O)NN=Cc1ccncc1)CO2 (stereo not given)	-11	-4	x	x	2.1	x	-14
